Screens: PubChem BioAssay, several laboratories
Mtb H37Rv: M. tuberculosis H37Rv growth inhibitors, H37Rv strain (AID 1626); M. tuberculosis H37Rv growth inhibition; higher % means a stronger effect; inhibition, % at 10 µM, or IC50 in µM where a hit was titrated; 0.95% of 220,000 active;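 active = confirmed in a dose series; inconclusive = inhibition above 80% but not taken into the dose series; inactive = below 80% or under 30% at every dose of the series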;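 also: bacteria incubated seven days before Alamar blue readout; 0% = bacteria only wells and 100% = bacteria with antibiotic wells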
YopH inh: YopH tyrosine phosphatase inhibitors, primary screen, biochemical, fluorescence Ex485/Em525; YopH tyrosine phosphatase [Yersinia enterocolitica]; inhibition, %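 (about 10 µM by stock and volumes)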; 0.16% of 140,000 active; AID 898, 2007;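 active = inhibition of 50% or more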;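 also: controls were vehicle for no effect and minimum signal wells for full effect; inactives centre near -20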
RecA splice inh: Mtb RecA intein splicing inhibitors, primary screen, biochemical, fluorescence, HTS. Protein RecA (Mycobacterium tuberculosis (strain ATCC 25618 / H37Rv)), P9WHJ3. cell-free RecA intein splicing. inhibition, %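 (about 9 µM by stock and volumes)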. 0.75% of 290,000 active; in the data active = inhibition above about 30%; inconclusive = no clear call, values can overlap the other calls;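 also: 0% = vehicle wells and 100% = reference inhibitor control wells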
Target sequence (P9WHJ3 whole entry, looked up, canonical isoform): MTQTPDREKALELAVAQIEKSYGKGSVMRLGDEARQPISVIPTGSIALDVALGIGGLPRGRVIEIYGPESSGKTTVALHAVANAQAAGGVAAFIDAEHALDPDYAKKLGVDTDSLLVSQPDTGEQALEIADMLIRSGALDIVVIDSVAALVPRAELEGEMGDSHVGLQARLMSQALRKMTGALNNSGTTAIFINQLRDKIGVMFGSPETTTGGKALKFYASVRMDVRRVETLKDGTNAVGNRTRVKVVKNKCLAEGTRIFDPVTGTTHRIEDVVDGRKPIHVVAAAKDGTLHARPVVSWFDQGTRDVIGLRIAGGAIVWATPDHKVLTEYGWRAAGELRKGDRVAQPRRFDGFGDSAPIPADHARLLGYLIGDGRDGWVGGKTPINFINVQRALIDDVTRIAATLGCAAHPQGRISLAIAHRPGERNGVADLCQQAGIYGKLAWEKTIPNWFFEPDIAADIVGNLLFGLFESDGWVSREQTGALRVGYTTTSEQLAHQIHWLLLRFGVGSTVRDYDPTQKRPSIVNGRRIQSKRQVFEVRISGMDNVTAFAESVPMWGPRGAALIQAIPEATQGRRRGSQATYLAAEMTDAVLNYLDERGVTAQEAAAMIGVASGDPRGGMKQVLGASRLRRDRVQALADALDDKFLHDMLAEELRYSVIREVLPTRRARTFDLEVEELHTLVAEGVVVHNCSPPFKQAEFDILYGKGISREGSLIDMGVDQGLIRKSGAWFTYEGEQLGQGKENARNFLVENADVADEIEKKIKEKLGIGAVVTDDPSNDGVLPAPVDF
Mtb betalactam: beta-lactam sensitization of Mtb H37Rv, H37Rv. AID 434955, 2010. 0.27% of 330,000 active. inhibition, % at 25 µM. M. tuberculosis H37Rv growth with meropenem, percent inhibition; hits of this screen are not shown here;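 active = about 74% or more and at least 40 points above the plate without the antibiotic, then above 30% in a dose series; inconclusive = first-round hits that could not be retested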;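 also: growth measured after seven days incubation then overnight dye step; 0% = bacteria only wells and 100% = bacteria with antibiotic; twin plates without the antibiotic show which effects depend on it; some results filed as inactive read as strong as hits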
Arbovirus anti: antivirals against arbovirus infection, primary screen, cell-based, full library, 10K replicate subset; arbovirus infection cell-based antiviral screen; inhibition, % at 10 µM; 0.37% of 200,000 active;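 active = inhibition from about 30%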;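 also: bluetongue infection of BSR cells; cell survival read as ATP light after 72 h; 0% = infected wells without compound and 100% = uninfected wells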
Arbovirus anti repeat: recorded beside Arbovirus anti, whose call it bears; inhibition, %; measured here: 10K subset replicate screen; many hits read low in the repeat;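 first of two repeat runs on a subset; 0% = infected and 100% = uninfected wells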
An asterisk follows results filed as active; ? = inconclusive; · = no result given. A portion of the library; count on the stated rates, not on these rows.

SMILES | Mtb H37Rv | YopH inh | RecA splice inh | Mtb betalactam | Arbovirus anti | others
Fc1ccccc1NC(=S)Nc1ccc(Br)cc1 | -19% | -28 | 5.6 | 2 | 17
CC(=O)Nc1ccc(NC(=O)c2sc3nc4n(c(=O)c3c2C)CCCCC4)cc1 | 1% | · | 1.2 | 2 | 6
CC(C)(C)OC(=O)NCCCC[C@H](NC(=O)c1[nH]cnc1C(=O)Nc1ccccc1)C(=O)OC(C)(C)C | 19% | · | 3.7 | -11 | ·
CSCC(=O)N1CCCC(CNC(=O)c2ccccc2Cl)C1 (stereo not given) | -1% | · | -1.0 | -5 | 3
O=C(Nn1cnnc1)c1ccc([N+](=O)[O-])cc1 | -3% | · | 0.1 | 1 | 2
Cc1ccc(C)c(OCCC(=O)NCCc2ccc(F)cc2)c1 | · | · | 3.6 | -2 | ·
CCOc1ccccc1NC(=S)NCCCn1ccnc1 | 4% | · | -0.6 | 4 | 1
Nc1nc(Nc2ccccc2F)nc(N2CCOCC2)c1[N+](=O)[O-] | -1% | · | 0.9 | -5 | ·
O=C(NC1CCCC1)C(c1ccncc1)N(C(=O)c1csnn1)c1ccc(F)cc1 (stereo not given) | · | · | -0.4 | -5 | ·
Cc1cc(N2C(=O)C(=O)/C(=C(/O)c3ccccc3)C2c2cccs2)no1 (stereo not given) | 5% | -47 | 0.4 | 8 | 6
Cc1cccc(OCCCN2CCOCC2)c1 | · | · | -1.7 | -2 | ·
Cc1ccc2c(c1)-c1c(cnn1CC(=O)N1CCCN(Cc3ccccc3F)C1)CO2 | -5% | -10 | 2.7 | -6 | 2 | Arbovirus anti repeat=-1
CC(C)(C)c1ccc(OCC(=O)O/N=C(\N)c2ccncc2)cc1 | · | · | 5.2 | -14 | ·
O=C(CN1CCN(C(c2ccccc2)c2ccccc2)CC1)NCc1ccccc1 | 14% | · | 3.0 | 36 | 9
O=C(CSc1nnc(-c2ccco2)o1)N1CCOCC1 | -8% | -41 | -0.1 | -2 | 5
O=S(=O)(NCC1CCCN(Cc2ccccc2)C1)c1cccc2cccnc12 (stereo not given) | · | · | -2.1 | -6 | ·
O=C1CCCc2c1[nH]c1ccc(Cl)cc21 | · | -18 | 1.8 | -1 | -6
C=CCNCc1cccn1-c1sc2c(c1C#N)CCCC2 | -8% | -7 | -0.7 | -9 | -5
Cc1ccc(C2(C)NC(=O)N(CC(=O)N3CCN(S(=O)(=O)c4cccc(F)c4)CC3)C2=O)cc1 (stereo not given) | · | · | 4.0 | -21 | ·
COc1ccccc1OCCn1c(SCC(N)=O)nc2ccccc21 | · | · | -0.9 | 6 | ·
Cc1ccc(C(=O)c2ccccc2C(=O)OCC(=O)NCCc2ccc(Cl)cc2Cl)cc1 | 4% | -16 | 24 | 6 | 8
CCCNC(=O)NC(=O)CSc1nc2ccccc2c(=O)n1Cc1ccncc1 | · | · | 1.1 | 3 | ·
CN(Cc1ccccc1)c1c([N+](=O)[O-])c(=O)n(C)c2ccccc12 | -1% | · | -4.9 | -3 | ·
CCCCN1C(=O)/C(=C/C=C2\SCCN2C)SC1=S | -2% | · | -1.1 | · | -15
COCCCn1c(C)csc1=Nc1cccnc1 | 4% | -28 | 2.6 | -2 | -5

The list goes on; the last 2 above are carried over.
SMILES | Mtb H37Rv | YopH inh | RecA splice inh | Mtb betalactam | Arbovirus anti | others
CCCCN1C(=O)/C(=C/C=C2\SCCN2C)SC1=S | -2% | · | -1.1 | · | -15
COCCCn1c(C)csc1=Nc1cccnc1 | 4% | -28 | 2.6 | -2 | -5
COC(=O)Cn1ncc(N(C)Cc2ccccc2)c(Cl)c1=O | · | · | -0.2 | -1 | ·
CC(C)(C)c1csc(NC(=O)CS(=O)(=O)c2ccccc2)n1 | · | · | -2.3 | 1 | ·
COc1ccc(-c2nc(C)ncc2-c2ccccc2)c(O)c1 | · | · | 2.7 | -2 | ·
CCOC(=O)c1cnc2nc[nH]n2c1=O | · | -21 | 2.3 | -10 | -2 | Arbovirus anti repeat=0
CC(C)c1ccc(NC(=S)NCc2cccs2)cc1 | 6% | -4 | · | 30 | 1
CC(C)c1ccc(S(=O)(=O)c2cc3cc(Br)ccc3oc2=O)cc1 | 8% | -24 | 4.3 | 42 | -2
COC(=O)c1cccc(NC(=O)NC23CC4CC(CC(C4)C2)C3)c1 | 24µM* | -9 | 0.5 | 100 | 0
C=CCN1C(=O)CN=C1Nc1ccc(OC)cc1OC | -5% | -22 | -0.9 | -5 | 2
CCCNC(=O)c1c(O)c2c([nH]c1=O)CCCC2 | 1% | · | -3.9 | -5 | -5
COc1ccc(CCN(C)CC(=O)Nc2cc(C)nc3ccccc23)cc1OC | -13% | · | -2.6 | -10 | ·
O=c1[nH]c(O)c(C=Nc2cccc(F)c2)c(=O)[nH]1 | · | · | -1.7 | 0 | ·
S=C(NCc1ccco1)N/N=C/c1ccccc1Cl | 9% | -28 | -4.9 | 3 | 2
Cn1cc(/C=N/NC(=O)COc2ccccc2[N+](=O)[O-])c2ccccc21 | 4% | -10 | 0.1 | -2 | -2
CCOc1ccc(C(=S)NC2CCCCC2)cc1OC | 1% | -32 | 1.0 | 3 | 1
O=C(NN1CCOCC1)c1cc(-c2cccc(Cl)c2)nc2ccccc12 | 8% | -28 | -1.8 | 33 | 5
COc1ccc(Br)cc1S(=O)(=O)NCCCN1CCOCC1 | -8% | · | 1.3 | -2 | 7
CC1(C)CC(=O)N(CC(=O)NC2CCCC2)c2ccccc2S1(=O)=O | -8% | -23 | 0.1 | -9 | 15
Cc1ccc(CN=c2c([N+](=O)[O-])nn(-c3ccc4c(c3)OCCO4)n2O)cc1 | -1% | -16 | 4.0 | 66 | -9
C/C(=N/NC(=O)CN1CCN(Cc2ccccc2Cl)CC1)c1cccnc1 | -6% | · | 0.7 | -7 | ·
C/C(=N\NC(=O)c1ccc(CSc2nncn2C)cc1)c1ccc(Cl)cc1 | 3% | -8 | 3.0 | 0 | 8
Cc1ccc(/C=N/c2sc3c(c2C(N)=O)CCCC3)o1 | 1% | · | -5.2 | -4 | -1
CN(C)/N=C/c1cc(Cl)cc([N+](=O)[O-])c1O | 3% | -12 | -0.2 | 8 | 5
Cc1cc2nc(CO)[nH]c2cc1C | 10% | · | 0.4 | 0 | ·
COc1ccc(-n2c(=O)c3ccccc3n(CC(=O)NCc3ccco3)c2=O)cc1 | 1% | · | -0.5 | 2 | 1
Cc1cc(C)n2nc(C(=O)OCC(=O)N3C(C)CCCC3C)nc2n1 (stereo not given) | · | · | 0.0 | 3 | ·
(more compounds)
SMILES | Mtb H37Rv | YopH inh | RecA splice inh | Mtb betalactam | Arbovirus anti | others
O=C(NCc1ccc(Cl)cc1)c1ccc2ccccc2n1 | · | · | -0.5 | 2 | ·
O=C(CN(Cc1ccccc1)S(=O)(=O)c1ccc(Br)cc1)N/N=C/c1ccccc1C(=O)O | -11% | · | 0.6 | -2 | ·
O=C(O)c1cc(-c2ccc(Cl)cc2)n(-c2ccc(F)cc2)n1 | · | · | 2.4 | 4 | ·
c1ccc(-c2nc(N3CCOCC3)c3ccccc3n2)nc1 | 5.2µM* | 12 | -1.2 | 89 | 6
COc1ccc(CN(C(=O)Cc2cccs2)C(C(=O)NC2CCCC2)c2ccncc2)cc1 (stereo not given) | 1% | -2 | 1.1 | -3 | 2
CCOP(=O)(OCC)C(Nc1ccccn1)c1ccccc1 (stereo not given) | 10% | 4 | 0.4 | 7 | 7
CC(=O)Nc1ccc(S(=O)(=O)N(C)CC(=O)Nc2cccc(S(=O)(=O)N3CCCC3)c2)cc1 | · | · | -0.4 | 0 | ·
COc1ccc(Nc2cc(Nc3cc(OC)c(OC)c(OC)c3)ncn2)cc1 | · | · | 0.6 | 8 | ·
CCOc1ccc(CNC(=O)c2ccc(Sc3ccc(C)cc3)c(NC(C)=O)c2)cc1OC | 0% | -18 | 3.9 | 1 | -1
O=C1NC(=Nc2cccc(O)c2)S/C1=C\c1cccc([N+](=O)[O-])c1 | · | · | 0.2 | 3 | ·
CCCn1cc(SCC(=O)NCc2ccc3c(c2)OCO3)c2ccccc21 | 34% | -24 | 0.0 | 0 | -2
COC(=O)CCCC1=CC2=C(c3ccccc3)C(=O)C(C)(OC(=O)C3CCCC3)C(=O)C2=CN1c1ccc(OC)cc1 (stereo not given) | -3% | · | 20 | 5 | ·
Cc1nc2c(=O)oc3ccccc3c2n1-c1ccccc1 | 4% | -21 | -2.0 | 2 | 3
CCCCC1(C)Nc2ccccc2-c2nc3ccccc3n21 (stereo not given) | -5% | -10 | -48 | 12 | -2
Cc1cc(C(=O)CSc2nc(N)cc(=O)[nH]2)c(C)n1-c1ccc(OC(F)F)cc1 | 3% | · | 4.7 | 0 | 4
COc1ccc(OC)c(C(=O)NC(CC(N)=O)c2ccc(N3CCCCCC3)c([N+](=O)[O-])c2)c1 (stereo not given) | · | · | 1.8 | -7 | ·
O=C(N/N=C/c1cccc(Cl)c1)C(c1ccncc1)N1CCOCC1 (stereo not given) | -1% | · | 1.0 | -18 | ·
Cc1nn2c(c1-c1ccccc1)NC1=C(C(=O)CCC1)C2c1ccccc1 (stereo not given) | 2% | -19 | 0.4 | 20 | -4
O=C(O)CC1C(=O)NCCN1C/C=C/c1ccccc1 (stereo not given) | 0% | -11 | 4.1 | -8 | 2 | Arbovirus anti repeat=5
COC(=O)c1c(NC(=O)CCCC(=O)O)sc(C)c1C | -8% | -32 | 0.6 | -2 | -1 | Arbovirus anti repeat=2
CCC(C(=O)NC1CCCCC1)n1nc(C)c2c(C)n(-c3ccccc3)nc2c1=O (stereo not given) | · | · | 0.0 | -1 | ·
Cc1ccc(C2NC(=O)NC(O)(C(F)(F)F)C2C(=O)c2ccccc2)o1 (stereo not given) | -5% | 9 | -1.1 | 12 | 5
CCCCN1CC(O)=C(c2nc3ccccc3s2)C1=N | 7% | -45 | 0.6 | 0 | -2
CC(C)[C@H](NC(=O)c1ccccc1F)C(=O)NCCc1ccccc1 | · | · | 0.1 | 5 | ·
CC(=O)c1ccc(N2C(=O)C3C(C2=O)C(C(=O)c2ccc(Cl)cc2)N2CCCC32)cc1 (stereo not given) | 5% | -15 | · | · | 8
The list goes on.
SMILES | Mtb H37Rv | YopH inh | RecA splice inh | Mtb betalactam | Arbovirus anti | others
CC(C)(C)c1ccc(S(=O)(=O)n2c(CN3CCOCC3)nc3ccccc32)cc1 | -8% | -19 | 2.1 | -4 | 5
Cc1cccc(-c2ccc(C=Nc3c(C)n(C)n(-c4ccccc4)c3=O)o2)c1 | ? | -46 | -2.8 | 88 | -1
Cc1ccc2nc(-c3cccc(NC(=O)c4ccc5c(c4)OCCO5)c3)oc2c1 | 2% | -25 | 2.5 | 86 | -15
COC(=O)CCC(=O)OC1(C)C(=O)C2=CN(Cc3ccc(OC)cc3)C(c3ccc(OC)cc3)=CC2=C(Br)C1=O (stereo not given) | 3% | · | -11 | 11 | ·
CC1CCN(CC(=O)Nc2cccc(Cl)c2)CC1 | 2% | · | 0.8 | -5 | 3
CC(C)(C)N=C1NN=C(c2ccc(S(=O)(=O)N3CCCCC3)cc2)CS1 | · | · | -2.2 | 1 | ·
Cn1c(=O)c2c(O)c(C=Nc3ccc(F)cc3)c(=O)n(C)c2n(C)c1=O | -4% | · | -3.9 | -1 | ·
C/C(=N\NC(N)=S)c1cc(-c2ccccc2)c(-c2ccccc2)s1 | · | · | 20 | 82 | ·
COc1ccc(Nc2nc(-c3ccc4c(c3)NC(=O)CO4)cs2)cc1 | 10µM* | · | 3.8 | 98 | -11
Cc1ccc(/C=N/NC(=S)N2CCOCC2)cc1 | 2% | -25 | -0.7 | 4 | -20
CCOC(=O)c1ccccc1NC(=S)N1CC(C)CC(C)C1 (stereo not given) | · | 26 | 1.1 | 10 | 1
Cc1cc(NCCCn2ccnc2)n2nc(C)c(-c3ccc(Cl)cc3)c2n1 | 4µM* | 2 | 7.9 | 99 | -27
Oc1ccc(C[C@H]2CNCCN2CCc2cccc(F)c2)cc1 | · | · | -0.6 | -6 | ·

Five entries out of the list, ordered by heavy-atom count, ascending:
SMILES | Mtb H37Rv | YopH inh | RecA splice inh | Mtb betalactam | Arbovirus anti | others
Cc1ccc(/C=N/NC(=S)N2CCOCC2)cc1 | 2% | -25 | -0.7 | 4 | -20
COc1ccc(Nc2nc(-c3ccc4c(c3)NC(=O)CO4)cs2)cc1 | 10µM* | · | 3.8 | 98 | -11
CC(C)(C)N=C1NN=C(c2ccc(S(=O)(=O)N3CCCCC3)cc2)CS1 | · | · | -2.2 | 1 | ·
Cc1ccc2nc(-c3cccc(NC(=O)c4ccc5c(c4)OCCO5)c3)oc2c1 | 2% | -25 | 2.5 | 86 | -15
COC(=O)CCC(=O)OC1(C)C(=O)C2=CN(Cc3ccc(OC)cc3)C(c3ccc(OC)cc3)=CC2=C(Br)C1=O (stereo not given) | 3% | · | -11 | 11 | ·
